Screening results deposited in PubChem by ICCB-Longwood Screening Facility, Harvard Medical School.
HCMV NEC inh – cytomegalovirus nuclear egress complex inhibition. HTRF UL50-UL53 interaction, normalized percent inhibition. inhibition, % (test concentration not listed). actives 0.15% (n = 190,000);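 active = both replicates at 50% or more, plus weaker picks with an unusually low signal ratio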;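 also: stock transfer was 100 nL into about 20 µL; 0% = negative control wells and 100% = wells with untagged competitor protein; inactives centre near -12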
GIV-Gai inh – GIV-Galpha-i interaction inhibition. P08753. Galpha-i3/FITC-GIV peptide fluorescence polarization, 90 min; stronger effect = lower value; scaled: aluminum fluoride 0%, vehicle 100%. percent of control (FP), % (concentration not given with the values). actives 0.42% (n = 210,000). AID 1224905;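 active = replicate mean at 85% of control or lower, very high polarization wells dropped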;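 also: wells of about 15 µL received 100 nL stock; the first replicate is given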
Target sequence (P08753 whole entry, looked up): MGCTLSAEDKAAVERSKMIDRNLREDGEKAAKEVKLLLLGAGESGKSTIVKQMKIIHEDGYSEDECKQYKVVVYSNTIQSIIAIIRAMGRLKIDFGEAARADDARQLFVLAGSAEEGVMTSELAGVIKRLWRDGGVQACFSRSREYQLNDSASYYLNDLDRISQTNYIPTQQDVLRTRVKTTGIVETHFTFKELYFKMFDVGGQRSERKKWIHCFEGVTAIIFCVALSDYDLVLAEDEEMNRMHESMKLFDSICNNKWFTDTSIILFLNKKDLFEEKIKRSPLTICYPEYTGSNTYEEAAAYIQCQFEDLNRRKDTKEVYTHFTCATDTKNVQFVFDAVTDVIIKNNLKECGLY
Sa growth 42C – S. aureus growth inhibition. S. aureus RN4220 growth, OD600, 20 h, 42 °C; stronger effect = lower value. relative growth, % (no concentration beside the values). actives 0.53% (n = 170,000). AID 720641;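 active = growth at 42 °C up to 50% and 20 or more points under that at 30 °C, or under 10% at both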;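 also: 300 nL library stock went into each well; scaled to the means of positive and negative controls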
Sa growth 42C second temp – second read-out of Sa growth 42C, no call of its own (marks repeat the call); relative growth, %; measured here: growth at 30 °C;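 optical density after 20 h as mean of two plates; 100% = untreated growth and lower means inhibition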
An asterisk follows results filed as active; x = no result given; & = joins results of further samples.

nr | mol | HCMV NEC inh | GIV-Gai inh | Sa growth 42C | Sa growth 42C second temp
1 | CCOc1ccc(N=C2NC(=O)S/C2=C\c2ccc(OC)cc2)cc1 | x | 99 | 80 | 83
2 | O=C(Nc1c(C(=O)N2CCN(c3ccccc3)CC2)oc2ccccc12)c1ccccc1F | x | 98 | 95 | 85
3 | CN(C)C(=O)c1cn(-c2ccccc2)nc1-c1cccs1 | -5 | x | 81 | 85
4 | CN(Cc1ccccc1)S(=O)(=O)c1cc(F)ccc1CN1C(=O)c2cccnc2C1=O | -24 | 99 | 88 | 92
5 | COc1cc(NC(=O)c2ccccc2)cc(OC)c1OC | -25 | 102 | 109 | 101
6 | O=C(NCc1ccccc1)C(=O)c1c(O)[nH]c2ccccc12 | x | 101 | 92 | 87
7 | O=c1c2ccccc2n2c(SCc3cccc(F)c3)nnc2n1Cc1ccc(F)cc1 | -5 | 100 | x | x
8 | CN(C)S(=O)(=O)c1cccc(C(=O)Nc2nnc(Cc3ccccc3)s2)c1 | 3 | x | 95 | 96
9 | O=C(NCc1ccccc1Br)c1cnn(-c2ccccc2)c1-n1cccc1 | -19 | 103 | x | x
10 | COc1cccc(NC(=O)N2CCN(c3cc(N(C)C)nc(C)n3)CC2)c1 | -2 | 102 | x | x
11 | COc1ccc2oc(=O)c(C(=O)NCCc3c(C)[nH]c4ccc(F)cc34)cc2c1 | -48 | 109 | 106 | 77
12 | COc1cccc(CNC(=O)c2cc3c(=O)oc4ccc(C)cc4c3s2)c1 | -22 | 102 | 113 | 87
13 | O=C1CC(c2nnc(Cc3c(F)cccc3Cl)o2)CN1c1ccccc1 (stereo not given) | 2 | 104 | 96 | 95
14 | Nc1nnc(CCC(CCc2nnc(N)s2)(CCc2nnc(N)s2)C(=O)c2ccccc2)s1 | -18 | 109 | 100 | 82
15 | CC(C)NC(=O)N1CCCC1c1ccc(Cl)cc1 (stereo not given) | -16 | 102 | x | x
16 | COCC(C)n1c(C)cc(C(=O)CSc2ccc(NC(C)=O)cc2)c1C (stereo not given) | -5 | x | 89 | 97
17 | COc1cc2c(=O)n(CCC(=O)NCC3CCCO3)c(=O)n(CC(=O)Nc3c(C)cccc3C)c2cc1OC (stereo not given) | 5 | 104 | 99 | 97
18 | O=C1OC(N2C(=O)CC[C@@H]2C(=O)O)c2ccccc21 (stereo not given in full) | -13 | 97 | x | x
19 | C=CCOc1ccc(/C=C2/C(=O)NC(=S)N(c3ccc(Cl)cc3)C2=O)cc1OC | -14 | 116 | x | x
20 | N#Cc1c(/N=C/c2ccccc2O)sc2c1CCC2 | -4 | 103 | 106 | 107
21 | O=C(O)CCC(=O)N1CCN(C(=O)c2ccco2)CC1 | 1 | 105 | 96 | 98
22 | CON(C)S(=O)(=O)c1cccc(C(=O)NC2CCSc3ccccc32)c1 (stereo not given) | 5 | x | 124 | 98
23 | COCCCNc1c2c(nc3ccccc13)CCC2 | 9 | 105 | 100 | 83
24 | CCC1SC(=Nc2ccccc2)N(S(=O)(=O)c2ccccc2)C1=O (stereo not given) | 20 | 107 | x | x
25 | CCOC(=O)c1nn(-c2ccc(Cl)cc2)c(=O)c2c(N)scc12 | -10 | 104 | 88 | 68
26 | COc1ccc(C(=O)NCC(c2cccnc2)N2CCc3ccccc32)cc1OC (stereo not given) | -8 | 101 | 124 | 85
27 | CN1CN=C(SCc2ccc(Cl)c(Cl)c2)NC1 | -3 | 103 | 90 | 95
28 | CC(C)CCN1C(=O)c2c(-n3cccc3)c3ccccc3n2CC1(C)C(=O)NC1CCCC1 (stereo not given) | 7 | 103 | x | x
29 | CNS(=O)(=O)c1ccc(NC(=O)c2cnn3c(C(F)F)cc(-c4ccccc4)nc23)cc1 | -41&-25 | 98&102 | 82 | 86
30 | O=C(NCCc1ccccc1)c1ccc2c(c1)N(Cc1ccccc1)C(=O)c1ccccc1S2(=O)=O | -36 | 104 | 100 | 98
31 | O=C(CN1C(=O)/C(=C\c2ccc(C(F)(F)F)cc2)Sc2ccccc21)N1CCc2ccccc2C1 | x | 99 | 77 | 89
32 | CCOC(=O)C(Sc1nnnn1-c1ccc(Cl)cc1)c1ccccc1 (stereo not given) | -26 | x | 96 | 87
33 | O=C(O)C(c1ccccc1)N1CCOCC1 (stereo not given) | -4 | 102 | 99 | 77
34 | Cc1cccc(OCC(=O)Nc2noc(-c3ccccc3)n2)c1 | 2 | 96 | x | x
35 | CCOC(=O)c1c(CSC(=N)N)n(-c2ccccc2)c2cc(Br)c(OC(C)=O)cc12 | x | 101 | 82 | 53
36 | O=C(c1cc(-c2ccc(Br)cc2)n[nH]1)N1CCN(S(=O)(=O)c2ccc(Br)s2)CC1 | x | 102 | 128 | 96

An excerpt from above in order of SMILES length, largest number first.
nr | mol | HCMV NEC inh | GIV-Gai inh | Sa growth 42C | Sa growth 42C second temp
31 | O=C(CN1C(=O)/C(=C\c2ccc(C(F)(F)F)cc2)Sc2ccccc21)N1CCc2ccccc2C1 | x | 99 | 77 | 89
32 | CCOC(=O)C(Sc1nnnn1-c1ccc(Cl)cc1)c1ccccc1 (stereo not given) | -26 | x | 96 | 87
33 | O=C(O)C(c1ccccc1)N1CCOCC1 (stereo not given) | -4 | 102 | 99 | 77

Going on with the list.
nr | mol | HCMV NEC inh | GIV-Gai inh | Sa growth 42C | Sa growth 42C second temp
37 | COC(=O)c1c(N2C(=O)Nc3ccccc3N2O)sc(C)c1C | -22 | 94 | 87 | 73
38 | CCOC(=O)N1CCC(NC(=O)c2cc(Sc3ccc(Cl)cc3)nc3ccccc23)CC1 | x | 101 | 115 | 79
39 | Cc1ccc2c(c1)c(-c1ccccc1)c(-c1ccccc1)n2CC(O)CN1C(=O)c2ccccc2S1(=O)=O (stereo not given) | -24 | 99 | x | x
40 | Cc1ccc(NC(=O)Cn2cc3c(n2)CCCC3)c(Cl)c1 | -20 | 99 | 100 | 88
41 | Cc1cc(C)c2c(CC(=O)N3CCN(c4cccc(Cl)c4)CC3)coc2c1 | 4 | 110 | 110 | 82
42 | O=c1c(S(=O)(=O)c2ccc(F)cc2)c[nH]c2c(F)c(Cl)ccc12 | -28 | 103 | x | x
43 | CCc1ccc(CC)c(S(N)(=O)=O)c1 | 8 | 102 | 86 | 99
44 | O=C(CCN1CCCCC1)Nc1nc(-c2ccc(Cl)cc2)cs1 | -9 | 100 | 100 | 81
45 | CCCCOC(=O)C1=C(C)NC2=C(C(=O)CC(c3ccccc3)C2)C1c1ccco1 (stereo not given) | -32 | 102 | 78 | 55
46 | Cn1ncc2c1ncn1nc(Cc3ccccc3)nc21 | x | 106 | 105 | 88
47 | CCN(CC)CCNC(=O)C1CCN(c2ccc(Cl)cc2)C1=O (stereo not given) | -28 | 102 | x | x
48 | c1ccc2c(c1)oc1c(NCCCCNc3ncnc4c3oc3ccccc34)ncnc12 | -32 | x | 108 | 88
49 | Cc1nc2n(n1)C(C(=O)Nc1ccc(C(C)C)cc1)CC(=O)N2 (stereo not given) | -27 | 98 | x | x
50 | COc1ccccc1N1CCN(c2ncccc2-c2nc(-c3ccc(Cl)cc3)no2)CC1 | -22 | 99 | 99 | 82
51 | C=CCN(C(=O)c1ccccc1OCc1c(C)noc1C)c1nc2c(s1)CCCC2 | -24 | x | 78 | 91
52 | O=C(CN1C(=O)C2CCCC2=Nc2ccccc21)Nc1ccc2c(c1)CCC2 (stereo not given) | -38 | 109 | x | x
53 | Cn1c(CC#N)n[nH]c1=S | -15 | 102 | 104 | 91
54 | O=C(c1ccc(-n2nnc3cccnc32)cc1)N1CCc2ccccc21 | -35 | 127 | x | x
55 | CCOC(=O)c1c(CSc2ccc(C)cc2)n(C)c2cc(Br)c(O)c(CN(C)C)c12 | x | 100 | 110 | 62
56 | COc1cccc(CCNC(=O)Cn2c(-c3cccs3)cc3ccccc32)c1 | -16 | 101 | 95 | 86
57 | CC1CC(C)CN(C(=O)c2ccc(Cl)cc2)C1 (stereo not given) | -16 | 101 | 80 | 90
58 | Cc1cc(-c2ccccc2)n2ncnc2n1 | -4 | x | 115 | 84
59 | O=C(Nc1ccc(-c2cnco2)cc1)c1ccccc1 | -1 | 100 | 97 | 104
60 | CCNC(=O)CC1C(=O)N(c2ccccc2)C(=O)N1Cc1ccc(F)cc1 (stereo not given) | -6 | 96 | 84 | 87
61 | COC(=O)C1=C(C(=O)c2ccccc2)C(c2ccccc2)n2nnnc2N1 (stereo not given) | -5 | 100 | 126 | 92
62 | COC(=O)c1sccc1NC(=O)Nc1ccc2nc3n(c(=O)c2c1)CCCC3 | 3 | 96 | x | x
63 | COc1ccc(-c2noc(COC(=O)C3(c4ccc(Cl)cc4)CCC3)n2)c(OC)c1 | -13 | x | 96 | 89
64 | O=C(Cn1c(=O)c2sccc2n(CC(=O)Nc2cccc(F)c2)c1=O)NCCc1ccccc1 | x | 102 | 95 | 70
65 | O=C(NC1CCCCC1)N1CCc2cc(S(=O)(=O)NC3CCCCC3)ccc21 | -10 | 102 | x | x
66 | CCc1ccc(NC(=O)Nc2nnc(N3CCCC3)s2)cc1 | x | 106 | 98 | 90
67 | O=C(COC(=O)C1CC2CCCC(C1)C2=O)NCc1cccs1 (stereo not given) | -24 | x | 85 | 92
68 | Cc1ccc(C)c(NC(=O)CSc2ncc3c(n2)-c2ccc(Cl)cc2N(C)S3(=O)=O)c1 | x | 98 | 82 | 92
69 | Cc1ccc(S(=O)(=O)n2nc(C)c(S(=O)(=O)N3CCCCCC3)c2C)cc1C | x | 107 | 82 | 88
70 | Cc1nc(SCC(=O)O)c2oc3ccccc3c2n1 | x | 97 | 65 | 84
71 | Cc1ccc(C2CCCN2C(=O)Nc2ccc3c(c2)OCO3)cc1 (stereo not given) | -36 | 100 | x | x
72 | Cc1ccc(C(CC(=O)NCCCN2CCCC2)N2Cc3ccccc3C2=O)cc1 (stereo not given) | -32 | 105 | 99 | 85

In another format: entries from further up.
Each structure is followed by: HCMV NEC inh, GIV-Gai inh, Sa growth 42C, Sa growth 42C second temp
(58) Cc1cc(-c2ccccc2)n2ncnc2n1
 : -4, x, 115, 84
(59) O=C(Nc1ccc(-c2cnco2)cc1)c1ccccc1
 : -1, 100, 97, 104
(60) CCNC(=O)CC1C(=O)N(c2ccccc2)C(=O)N1Cc1ccc(F)cc1 (stereo not given)
 : -6, 96, 84, 87

Other entries:
nr | mol | HCMV NEC inh | GIV-Gai inh | Sa growth 42C | Sa growth 42C second temp
73 | COc1ccc(SCc2cc(=O)n3nc(-c4ccc(OC)cc4)sc3n2)cc1 | 10 | 102 | x | x
74 | CCn1nc(C)c(NC(=O)c2ccc(Cl)cc2)c1C(=O)OC | 5 | 100 | 90 | 99
75 | O=C(NNc1nc(CN2CCOCC2)nc2scc(-c3ccccc3)c12)c1cccc(S(=O)(=O)N2CCOCC2)c1 | -35 | x | 107 | 93
76 | Nc1sccc1C(=O)c1ccccc1 | -20 | 107 | 99 | 101
77 | CCC(C)c1ccc(NC(=O)CSc2nc(N)cc(=O)[nH]2)cc1 (stereo not given) | -28 | x | 68 | 74
78 | COc1ccc(CC2=NS(=O)(=O)c3cc(S(=O)(=O)N4CCCCC4)ccc3N2)cc1OC | 21 | 104 | x | x
79 | O=C(CSc1nnc(-c2c[nH]c3ccccc23)o1)NCCC1=CCCCC1 | -32 | x | 99 | 95
80 | COc1ccc(Cl)cc1NC(=O)CCc1c(C)nc2c(c1C)c(=O)n(C)c(=O)n2C | -13 | 102 | 124 | 91
81 | NC(=O)Cn1cnc2sc3c(c2c1=O)CCC3 | -16 | x | 92 | 69
82 | CCN1C(=O)C2CCCCN2c2ccc(C(=O)NCc3ccccc3)cc21 (stereo not given) | -14 | 103 | x | x
83 | Cc1cc2c(cc1S(=O)(=O)N1CCC(C(=O)NCc3ccccc3Cl)CC1)OCC(=O)N2 | -9 | 100 | x | x
84 | COc1cc2nc(SCc3ccc(C)cc3)n3nc(CCn4nc(C)cc4C)nc3c2cc1OC | -7 | 96 | 106 | 89
85 | Cc1nnsc1-c1c(C(=O)Oc2ccccc2)c(C)nn1-c1ccccc1 | 7 | 103 | 105 | 70
86 | CNS(=O)(=O)c1cn(CC(=O)Nc2ccc(OC)c(Cl)c2)cc1S(=O)(=O)NC | x | 99 | 93 | 90
87 | Cc1ccccc1Nc1nc(N)nc(CN2CC(C)OC(C)C2)n1 (stereo not given) | -26 | x | 83 | 87
88 | O=C(NCc1cccc(F)c1)c1ccc2nc(CCc3ccccc3)oc2c1 | x | 102 | 72 | 86
89 | CCC(c1n[nH]c(=S)o1)N(C)C (stereo not given) | -12 | x | 75 | 93
90 | O=C(Cn1cnc2ccccc2c1=O)Nc1ccc(S(=O)(=O)N2CCCC2)cc1 | 13 | 102 | 98 | 106
91 | CCOc1cccc(NC(=O)c2cnccc2C(F)(F)F)c1 | 9 | 109 | 103 | 95
92 | CC(=O)Nc1ccc(C(=O)Cn2ncc(Cl)c(Cl)c2=O)cc1 | -64 | x | 100 | 64
93 | COc1ccc(S(=O)(=O)N2CCC(C)CC2)cc1 | x | 102 | 67 | 102
94 | Cn1c(C(C(=O)NCC2CCCO2)N(Cc2ccc(F)cc2)C(=O)Cn2nnc3ccccc32)nc2ccccc21 (stereo not given) | 4 | 109 | 111 | 97
95 | Cc1cc(=O)[nH]c2cc3c(cc12)C(C)(C)C(C)N3C (stereo not given) | -52 | x | 110 | 86
96 | O=C(Nc1ccccc1C(=O)Nc1ccccc1)c1cccs1 | -12 | x | 78 | 91
97 | O=C(Cn1nc(-c2ccccc2)ccc1=O)N1CCCCC1 | -6 | 106 | 98 | 95
